VDR inhibitor = inhibitors of human vitamin D receptor; VDR-SRC2-3 peptide fluorescence polarization, 2 h; Potency, µM, inactives show max response, negative = inhibition, hits mostly inhibitors; 0.93% of 400,000 active; active = well fitted inhibition curve with a large enough effect; inconclusive = small, poorly fitted or top-dose-only effect, or another doubt; inactive = no such curve, though single readings can be large or run the other way; also: series mostly up to about 120 µM
Target sequence (P11473 whole entry, looked up): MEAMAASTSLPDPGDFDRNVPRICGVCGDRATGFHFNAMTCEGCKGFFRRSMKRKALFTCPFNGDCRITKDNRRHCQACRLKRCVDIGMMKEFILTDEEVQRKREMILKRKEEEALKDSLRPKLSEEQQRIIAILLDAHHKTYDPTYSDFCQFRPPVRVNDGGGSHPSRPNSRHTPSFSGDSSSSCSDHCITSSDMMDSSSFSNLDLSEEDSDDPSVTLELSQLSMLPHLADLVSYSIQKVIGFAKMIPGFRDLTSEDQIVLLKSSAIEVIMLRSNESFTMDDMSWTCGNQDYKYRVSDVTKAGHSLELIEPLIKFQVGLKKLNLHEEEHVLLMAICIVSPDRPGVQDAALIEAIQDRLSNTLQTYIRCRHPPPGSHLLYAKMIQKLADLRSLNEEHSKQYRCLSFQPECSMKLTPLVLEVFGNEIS
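Reagent solutions, kept cold and dark, are dispensed first; compounds are then pinned in at 23 nl, plates briefly spun, and incubated 2 h at ambient temperature. Inhibition of VDR–SRC2-3 peptide binding is read by fluorescence polarization.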
The depositor's hits bear a star; ? = inconclusive; & = joins results of further samples; [ ] = dose if it differs, or a comment. % is scaled to controls: 0 for no effect and ±100 for the full control effect; potency is read from the fitted curve at half-maximal effect. An excerpt, so the mix of outcomes need not match the whole.

mol,VDR inhibitor
O=C(CSc1nnc(-c2cccs2)n1-c1ccccc1)N1CCOCC1,2%
CS(=O)(=O)N(CCc1ccccc1)CC(=O)NCc1ccc2c(c1)OCO2,2%
Cc1noc(C)c1NC(=O)N(C)C[C@H]1Oc2c(NC(=O)NC(C)C)cccc2C(=O)N([C@H](C)CO)C[C@@H]1C,-17%
O=C(Nc1cc(Oc2ccc(Cl)cc2)cc([N+](=O)[O-])c1)c1ccco1,-11%
Nn1c(SCC(=O)Nc2ccc(N3CCOCC3)cc2)nnc1-c1cccc(F)c1,-13%
O=C1/C(=C/c2coc3ccc(O)cc3c2=O)SC(=S)N1c1ccccc1,-9%
O=C(O)c1ccc(Nc2nc(-c3cccnc3)cs2)cc1,-9%
Cc1ccc(S(=O)(=O)/C(C#N)=C/c2c[nH]c3ccccc23)cc1,17%
CCc1ccc(NC(=O)CN(C)S(=O)(=O)c2ccc3c(c2)c(=O)n(C)c(=O)n3C)cc1,-8%
CCc1nnc(SCCSc2nnc(CC)n2N)n1N,7%
O=C1NC(=O)C2(CCc3ccccc32)N1 (configuration not stated),-10%
COc1ccc(C2=NO[C@@](CC(=O)O)(C(=O)Nc3ccc4c(c3)OCCO4)C2)cc1,1%
COc1cccc(CN2CCNC(=O)C2CC(=O)N(C)Cc2cnccn2)c1OC (configuration not stated),-20%
CN(C)c1cc(-c2ccccc2)nc(-c2ccccc2)n1,-14%
COC(=O)CN(c1ccc2c(c1)OCO2)S(C)(=O)=O,-15%
CCCCNC(=O)c1cn(-c2ccc(OCC)cc2)c(=O)c2cc(OC)c(OC)cc12,-8%
C=CCN(CC=C)S(=O)(=O)c1ccc(C(=O)Nc2nc3c(s2)CCc2ccccc2-3)cc1,-9%
COc1ccc(CNCc2c(C(=O)O)n(Cc3ccc(F)cc3)c3cc(C)ccc23)cc1OC,5%
O=C(NCCc1nc2ccccc2n1CCCOc1ccc(Cl)cc1)C1CCCCC1,5%
CCN(Cc1ccncc1)C(=O)CCc1ccccc1,5%
COc1cc(NC(=O)COC(=O)CO/N=C(\C)c2ccc3c(c2)OCO3)cc(OC)c1OC,6%
Cc1cccc(OC2CCN(Cc3nc(CC4CC4)no3)CC2)c1,9%
COc1ccc2c(c1)C(=O)[C@H](O)[C@@H](c1ccc(OC)c(Br)c1)O2,-7%&-4%
NNC(=O)CC12CC3CC(C1)CC(n1ncnn1)(C3)C2,6%
Cc1ccc(NS(=O)(=O)c2ccc(CCC(=O)N3CCCC3)cc2)cc1,23%
CCOC(=O)N=Nc1c(O)n(Cc2ccccc2)c2ccccc12,17%
COc1ccccc1CNC(=O)/C=C/c1ccc(Br)o1,-7%
CN(C)CCNC(=O)CCn1nc(-c2ccc(Cl)cc2)ccc1=O,9%
O=C(CN1C2CCCC1CC(NC(=O)c1ccco1)C2)Nc1ccccc1C(F)(F)F (configuration not stated),12%
Cc1ccccc1C1NC(c2ccccc2C)C([N+](=O)[O-])C(C)(C)C1[N+](=O)[O-] (configuration not stated),-23%

An excerpt from above in order of the VDR inhibitor value, low to high.
mol,VDR inhibitor
COc1ccccc1CNC(=O)/C=C/c1ccc(Br)o1,-7%
O=C(CN1C2CCCC1CC(NC(=O)c1ccco1)C2)Nc1ccccc1C(F)(F)F (configuration not stated),12%
Cc1ccc(S(=O)(=O)/C(C#N)=C/c2c[nH]c3ccccc23)cc1,17%

Additional records follow.
mol,VDR inhibitor
CCOC(=O)c1c(C)[nH]c(C)c1S(=O)(=O)NCCN1CCN(c2ccccc2F)CC1,-14%
Cc1cccc(N2CCN(C(=O)c3cnc4c(C)cccn4c3=O)CC2C)c1 (configuration not stated),18%
CCN(CC)CCNC(=O)c1ccc(NC(=O)c2ccc(S(=O)(=O)N3CCCCCC3)cc2)cc1,0%
COc1ccc(-c2cn3nc(N4CCCC(C(=O)NCCCOC(C)C)C4)sc3n2)cc1 (configuration not stated),14%
C=CCOC(=O)c1[nH]c2c(c1C)C(=O)CC(c1ccco1)C2 (configuration not stated),79µM*
CN(C(=O)c1sc2nc(N3CCOCC3)c3c(c2c1N)CCCC3)c1ccccc1,-15%
CCCC[C@H](NC(=O)[C@H](CO)NC(=O)[C@H](Cc1ccc(O)cc1)NC(=O)[C@H](CO)NC(C)=O)C(=O)N[C@@H](CCC(=O)O)C(=O)N[C@@H](Cc1cnc[nH]1)C(=O)N[C@H](Cc1ccccc1)C(=O)N[C@@H](CCCNC(=N)N)C(=O)N[C@@H](Cc1c[nH]c2ccccc12)C(=O)NCC(=O)N[C@@H](CCCCN)C(=O)N1CCC[C@H]1C(=O)N[C@H](C(N)=O)C(C)C,1%
CCOc1ccc(NC(=O)CSc2nnc(CNC(=O)C34CC5CC(CC(C5)C3)C4)n2CC)cc1,3%
O=C(O)/C=C/c1ccccc1,10%
O=C(COc1ccccc1)Nc1ccccc1N1CCN(c2ccccc2)CC1,4%
COc1ccc([C@H]2CC(=O)C=C(c3ccc(C(=O)O)cc3)C2)cc1OC,-2%
CCOc1ccc(S(=O)(=O)Nc2ccc(S(=O)(=O)N3CCOCC3)cc2)cc1,3%
CC(=O)c1cccc(NS(=O)(=O)c2c(C(=O)N3CCCCCC3)c(C)n(C)c2C)c1,20%
Cc1cccc(C(=O)NC(=S)Nc2c(C)n(C)n(-c3ccccc3)c2=O)c1,-1%
O=C(CSc1ncnc2sc3c(c12)CCCC3)NC1CCS(=O)(=O)C1 (configuration not stated),5%
CC1Cn2c(C(=O)NCc3ccccc3Cl)cc3cccc(c32)S1 (configuration not stated),12%
O=C(Nc1ccon1)c1cccc(C(F)(F)F)c1,8%
Cc1cc(Cl)c(S(=O)(=O)Nc2ccc3c(c2)OCCO3)cc1OCC(N)=O,5%
COc1ccc(CNC(=O)C(CCSC)NS(=O)(=O)c2ccccc2F)cc1 (configuration not stated),13%
Cc1nn(C)c(C)c1CN(C)C(=O)c1cc2nc(-c3ccco3)cc(C(F)(F)F)n2n1,-4%
COc1ccc(-c2cc(N)n(S(=O)(=O)c3c(F)c(F)c(F)c(F)c3F)n2)cc1OC,?
COc1ccc(-c2ccc(SCC(=O)N3CC(=O)Nc4ccccc43)nn2)cc1,22%
CCC(C(=O)Nc1ccc(S(=O)(=O)N(C)C2CCN(C)CC2)cc1)c1ccccc1 (configuration not stated),-16%
COc1ccc(/C=C/c2c(-c3ccccc3OC)sc3ccccc23)cc1OC,-13%
O=C(Nc1cc(F)cc(F)c1)c1ccc(NCCCN2CCCCCC2)c([N+](=O)[O-])c1,11%
O=C(NNC1CC(=O)N(c2ccc(Br)cc2)C1=O)c1cccnc1 (configuration not stated),5%
O=C1/C(=C\c2ccccc2)CCC/C1=C/c1ccccc1,?
COc1ccccc1NC(=S)N1CCOCC1,-6%
Cc1csc(SC(C)C(=O)NCC2CCCO2)n1 (configuration not stated),0%
CCOP(=O)(OCC)c1nc(-c2cccc3ccccc23)oc1NCc1ccc(OC)cc1,-17%

VDR inhibitor: hit marks shown above.
mol,VDR inhibitor
C=CCOC(=O)c1[nH]c2c(c1C)C(=O)CC(c1ccco1)C2 (configuration not stated),79µM*

Additional structures:
mol,VDR inhibitor
CC(=O)N1CCc2cc(Br)cc(S(=O)(=O)N3CCC(C(=O)Nc4ccc(C(C)C)cc4)CC3)c21,?
COc1cc(C)c(Cl)cc1S(=O)(=O)NCCCN1CCOCC1,3%
CCOc1ccccc1N(C)S(=O)(=O)c1ccc2c(c1)CC(C)N2C(=O)C1CC1 (configuration not stated),-11%
COc1cccc(CNC(=O)CSc2nc3ccc(C)cc3[nH]2)c1,?
COc1cccc(COC(=O)C2CC(=O)N(Cc3ccco3)C2)c1OC (configuration not stated),-10%
O=C(CCCn1c(=O)oc2ccccc21)N1CCN(c2ccc(F)cc2)CC1,21%
COC(=O)c1cc(NC(=O)c2nn(C)c3c2CSc2ccccc2-3)cc(C(=O)OC)c1,-6%
CCOC(=O)C(C)n1cnc2c1c(=O)[nH]c(=O)n2C (configuration not stated),4%
CC(C)Oc1cccc(C(=O)C2CCCN(Cc3cccn3-c3ccccn3)C2)c1 (configuration not stated),18%
CC(=O)NCCc1ccc(S(=O)(=O)Nc2cccnc2)cc1,8%
CCC(C(=O)Nc1cccc(C#N)c1)n1nc(-c2ccccc2)ccc1=O (configuration not stated),-4%
Cc1ccc(NC(=O)CN2C(=O)c3cccnc3Oc3ccc(Cl)cc32)cc1,-1%
Cc1cccc(-c2nc(CS(=O)CC(=O)NC3CCCCC3)c(C)o2)c1 (configuration not stated),-2%
O=S(=O)(c1ccc(F)cc1)n1ccc2cccnc21,-8%
Cc1csc(SCC(=O)Nc2cccc(S(=O)(=O)N3CCOCC3)c2)n1,4%
O=C(Nc1cccc(C(=O)O)c1)/C(=C/c1ccc2c(c1)OCO2)NC(=O)c1cccc(Br)c1,12%
Cc1nc(-c2ccc(F)cc2)c(CC(=O)N(C)CC(=O)Nc2ccccc2Cl)s1,-25%
Cc1[nH]c(C)c(S(=O)(=O)N2CCN(c3ccccc3F)CC2)c1C(=O)N1CCCC1,-9%
CCOC(=O)c1ccc(S(=O)(=O)NNc2ccc(C(F)(F)F)cn2)cc1,0%
O=C(C[n+]1cccc(CNC(=O)c2ccc(OC(F)F)cc2)c1)Nc1cc(C(F)(F)F)ccc1Cl,-10%
Oc1ccc(C[C@H]2CNC(=S)N2CC2CCCN2C[C@H](Cc2ccc(O)cc2)N2C[C@H](Cc3ccc(O)cc3)N(CC3CCCCC3)C2=S)cc1 (some centres not stated),16%
CCCSc1ccc([C@@H]2[C@H]3C(=O)N(CC)C(=O)[C@H]3[C@]3(C(=O)OC)CCCN23)cc1OC,-19%
CCN(CC(=O)NCc1ccc(F)cc1)C(=O)c1ccc(Cl)cc1,-3%
CCOC(=O)Cn1c(=O)c(F)cn(Cc2ccc(OC)c([N+](=O)[O-])c2)c1=O,-23%
CCn1c(C)nc2cc(C(=O)NNC(=S)Nc3ccc(F)cc3)ccc21,13%
COc1cc(OC)cc(-c2c(C#Cc3ccsc3)c3cc(-c4ccc(CN5CCOCC5)cc4)ccc3n2C)c1,-10%
O=c1c2sccc2nc(SCc2ccc([N+](=O)[O-])cc2)n1Cc1ccccn1,-5%
Cc1nc2cc(NC(=O)CSc3nc4c(C)cccc4cc3C#N)ccc2s1,7%
CCC1COC(c2cccn2Cc2ccc(Cl)cc2)=N1 (configuration not stated),-3%
Cc1ccc(C2CCN(C(=O)Nc3ccc(F)cc3)C2)cc1 (configuration not stated),-7%

Gathered by group, the compounds so far containing a furan ring, fused or not (6)
mol,VDR inhibitor
O=C(Nc1cc(Oc2ccc(Cl)cc2)cc([N+](=O)[O-])c1)c1ccco1,-11%
COc1ccccc1CNC(=O)/C=C/c1ccc(Br)o1,-7%
O=C(CN1C2CCCC1CC(NC(=O)c1ccco1)C2)Nc1ccccc1C(F)(F)F (configuration not stated),12%
C=CCOC(=O)c1[nH]c2c(c1C)C(=O)CC(c1ccco1)C2 (configuration not stated),79µM*
Cc1nn(C)c(C)c1CN(C)C(=O)c1cc2nc(-c3ccco3)cc(C(F)(F)F)n2n1,-4%
COc1cccc(COC(=O)C2CC(=O)N(Cc3ccco3)C2)c1OC (configuration not stated),-10%

Continuation:
mol,VDR inhibitor
Cc1ccc(C(=O)N2CCOCC2)c(F)c1F,6%
CCOC(=O)NC(NC(=S)Nc1ccccc1[N+](=O)[O-])C(Cl)(Cl)Cl (configuration not stated),-13%
O=C(NNC(=O)C12CC3CC(CC(C3)C1)C2)c1ccccc1[N+](=O)[O-],12%
COC(=O)c1ccccc1NC(=O)CSc1nc2ccccc2c(=O)[nH]1,6%
CCC(C)[C@H](NC(=O)N1CCCCCC1)C(=O)OC (some centres not stated),-13%
CCc1ccccc1NC1=NCC(=O)N1C1CCCCC1,36%[activator]
Cc1ccc(CNc2ncnc3c2cnn3-c2ccc(Cl)cc2)cc1,2%
CCOc1ccc(-c2cc3c(=O)n(Cc4nc(-c5ccc(OCC)c(OC)c5)oc4C)ccn3n2)cc1Cl,-12%
CSCCC1NC(=O)N(CC(=O)Nc2ccc(N3CCCCC3)cc2)C1=O (configuration not stated),-2%
Cc1cccc(C(=O)NNC(=S)NC(=O)c2ccccc2)c1,-8%
COC(=O)C(C)Sc1nnc2cc(C)c3cc(C)cc(C)c3n12 (configuration not stated),7%
CCOc1nc(N2CCOCC2)nc(C)c1[N+](=O)[O-],-9%
COc1ccc(C(=O)CSc2nnc(-c3cccs3)n2-c2ccccc2)cc1,2%
Cc1ccc([N+](=O)[O-])cc1NC(=O)Cc1cccs1,-14%
CCOc1ccc(S(=O)(=O)N(C)CC(=O)N2CCN(CC)CC2)cc1,-3%
Cc1ccc(NC(=O)CSc2nc3ccccc3c(=O)n2Cc2cccs2)cc1,-3%
NS(=O)(=O)c1cccc(NC(=O)COC(=O)/C=C/c2nc3ccccc3s2)c1,21%
CCn1c(/C=C/c2c(C)[nH]c3ccccc23)nc2ccccc2c1=O,-4%
COc1ccccc1N1CCN(C(=O)CSc2ccc3c(C)cc(C)nc3n2)CC1,-4%
COC(=O)c1cc(NC(=O)CN2C(=O)CSC2=O)ccc1Cl,18%
COc1ccc(C(=O)Nn2c(C)nc3ccccc3c2=O)cc1OC,-4%
CSc1nnc2c(n1)c(C)nn2-c1ccc(C)cc1,7%
Cc1ccn2c(Nc3ccc4c(c3)OCCO4)c(-c3ccc(C)s3)nc2c1,-1%
CCOC(=O)c1cc(-c2nnc(SCC(=O)Nc3ccc(F)cc3)o2)c(C)nc1C,?
CC12CC3CC(C)(C1)CC(NCc1ccncc1)(C3)C2,-2%

Bioassay records deposited in PubChem by National Center for Advancing Translational Sciences (NCATS).
